High-throughput results (PubChem)
AmpC nodet inh: AmpC beta-lactamase inhibition, detergent-free assay; 71,000 compounds, 1.8% hits; AmpC nitrocefin hydrolysis, absorbance 480 nm, no detergent; potencies from a single point are estimates; AID 585; P00811; Potency, µM (highest dose often 28.7 µM), without a hit: at the highest dose activity change, negative = inhibition; active = falling curve, for most hits resting on a single point; inconclusive = weak or doubtful change; inactive = flat or rising curve; note: % of control where 0% means no effect; about half of the hits show no inhibition at the top dose; a quarter of the inactives give rising signals
Target sequence (P00811 whole entry, looked up): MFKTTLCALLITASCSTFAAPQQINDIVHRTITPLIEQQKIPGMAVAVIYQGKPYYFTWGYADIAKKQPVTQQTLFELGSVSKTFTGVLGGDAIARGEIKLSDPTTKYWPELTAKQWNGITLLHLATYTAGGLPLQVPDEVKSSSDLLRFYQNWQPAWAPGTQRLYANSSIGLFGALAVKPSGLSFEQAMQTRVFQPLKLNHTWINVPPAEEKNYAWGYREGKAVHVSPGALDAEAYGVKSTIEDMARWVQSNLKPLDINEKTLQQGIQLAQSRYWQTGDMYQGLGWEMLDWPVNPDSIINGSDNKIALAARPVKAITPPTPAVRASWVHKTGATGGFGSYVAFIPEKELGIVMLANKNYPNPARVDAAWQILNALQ
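Enzyme, pH 7.0 phosphate. Compound titrations were pre-incubated with AmpC for 15 min at room temperature before nitrocefin (stock 800 uM) addition; product formation was recorded at 480 nm every 20 s for 4 min.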
The depositor's hits bear a star; [ ] = dose if it differs, or a comment. Potency is the fitted concentration of half-maximal effect. The list is partial (hit frequency here may not be typical).

> COc1ccc(CN2C(=O)CN=C2Nc2ccc(C)cc2C)cc1
  AmpC nodet inh = 24%

> COc1ccc(C(C)=O)cc1COC(=O)Cn1cnc2ccccc2c1=O
  AmpC nodet inh = 19%

> CN(C)c1oc(COc2ccccc2F)nc1C#N
  AmpC nodet inh = 4%

> COc1ccc(-c2cc3ccccc3n2CC(O)CN2CCOCC2)cc1 (centres undefined)
  AmpC nodet inh = 144%

> O=C(NC1CC1)c1cccc(Nc2ccc(-c3ccc4c(c3)OCCO4)nn2)c1
  AmpC nodet inh = -10%

> CCOc1ccccc1NC=C1C(=O)OC(C)(C)OC1=O
  AmpC nodet inh = 22%

> CO[C@]1(NC(=O)[C@H](C(=O)O)c2ccc(O)cc2)C(=O)N2C(C(=O)O)=C(CSc3nnnn3C)CO[C@H]21
  AmpC nodet inh = -19%[12.8 µM]

> COc1ccc(C(=O)NC(C(=O)NCc2ccccn2)C(C)C)cc1 (centres undefined)
  AmpC nodet inh = 19%

> Cc1cc(/C=C\c2ccc3cc(N(C)C)ccc3[n+]2C)c(C)n1-c1ccccc1
  AmpC nodet inh = 21%[12.8 µM]

> Cc1ccc(N2CC(C(=O)Nc3ccccn3)CC2=O)cc1 (centres undefined)
  AmpC nodet inh = -2%

> Cc1cc(-c2ccco2)n(CC(=O)NCc2ccco2)n1
  AmpC nodet inh = 11%

> CCC(C)NC(=O)C1CN(S(=O)(=O)c2ccccc2)CCN1S(=O)(=O)c1ccccc1 (centres undefined)
  AmpC nodet inh = 14%

> CC1Cc2ccccc2N1C(=O)c1ccnc(C(C)(C)C)c1 (centres undefined)
  AmpC nodet inh = 38%

> COc1ccc2nc3sc(C(=O)NCc4cccs4)c(N)c3cc2c1
  AmpC nodet inh = 13µM*

> CCCNc1nc2c(c(=O)[nH]c(=O)n2C)n1CCCc1ccccc1
  AmpC nodet inh = -13%

> COCCCN1C(=O)C(=O)/C(=C(/O)c2ccc3c(c2)OCCO3)C1c1ccc(C(=O)OC)cc1 (centres undefined)
  AmpC nodet inh = 10%

> Cc1ccc(OCc2nn3c(-c4ccco4)nnc3s2)cc1
  AmpC nodet inh = 6%

> CN1CC=C2C(C#N)=C(N)C(C#N)(C#N)C(c3cccc(Cl)c3Cl)C2C1 (centres undefined)
  AmpC nodet inh = 13%

> COCCN1Cc2cccc(C(=O)NC3CCCCCC3)c2C1=O
  AmpC nodet inh = 30%

> COc1cc(-c2nnc(SCC(=O)c3ccccc3)o2)cc(OC)c1OC
  AmpC nodet inh = 127%

> Cn1nnnc1SCCNCC#Cc1ccccc1
  AmpC nodet inh = -4%

> Cc1onc(-c2ccccc2Cl)c1C(=O)N1CCc2ccccc21
  AmpC nodet inh = 40%

> CCOc1ccc(NC(=O)CCC(=O)OC)cc1
  AmpC nodet inh = -3%

> COc1ccc(N2C(=O)NC3CC2(C)Oc2ccc(Cl)cc23)cc1OC (centres undefined)
  AmpC nodet inh = 103%

> Cc1cc(NS(=O)(=O)c2ccc(NC(=O)CCc3ccccc3)cc2)no1
  AmpC nodet inh = -14%

> COC(=O)[C@@]1(Cc2ccc(OC)cc2)[C@H]2c3cc(C(=O)N(C)C)n(CCF)c3C[C@H]2CN1C(=O)c1ccccc1
  AmpC nodet inh = 148%

> CCn1c(Cc2ccccc2)nnc1SCC(=O)Nc1cc(C)on1
  AmpC nodet inh = -2%

> COc1ccccc1CNC(=O)COC(=O)c1ccc(S(=O)(=O)N2CCCC2)cc1
  AmpC nodet inh = 4%

> COc1ccc(C2CC(c3cccc(C)c3)n3nc(N)nc3N2)cc1 (centres undefined)
  AmpC nodet inh = 4µM*[single pt active]

> CN(C)CCN1C(=O)C(O)=C(C(=O)c2ccco2)C1c1ccccc1F (centres undefined)
  AmpC nodet inh = -15%

> CC(C(=O)NCc1ccccc1)N1C(=O)C2CC=C(Cl)CC2C1=O (centres undefined)
  AmpC nodet inh = -2%

> COc1ccc(N2CCN(C(=O)c3ccc(CNc4c(N5CCOCC5)c(=O)c4=O)cc3)CC2)cc1
  AmpC nodet inh = 102%

> N/C(CC/C(N)=N/O)=N\O
  AmpC nodet inh = 4%[5.75 µM]

> CC1CN(c2oc(-c3ccco3)nc2S(=O)(=O)c2ccccc2)CC(C)O1 (centres undefined)
  AmpC nodet inh = 29%

> COc1ccc(NC(=O)CS(=O)CC(=O)NCc2cccc(C(F)(F)F)c2)cc1 (centres undefined)
  AmpC nodet inh = 9%

> C=CCOc1cccc(C2c3c(oc4ccccc4c3=O)C(=O)N2c2ccccn2)c1 (centres undefined)
  AmpC nodet inh = -6%

> COC(=O)c1cc2nc(-c3ccc(OC)c(OC)c3)cc(C(F)(F)F)n2n1
  AmpC nodet inh = 1%

> COc1ccc(N2CCN(C(=O)c3ccc4c(=O)n(CC5CCCO5)c(=O)[nH]c4c3)CC2)cc1 (centres undefined)
  AmpC nodet inh = 62%

> N#Cc1nc(COc2ccccc2F)oc1NCc1ccc(F)cc1
  AmpC nodet inh = 2%

> CCCC(=O)NCCc1c2n(c3ccc(OC)cc13)CCCc1ccccc1-2
  AmpC nodet inh = 99%

> CC1=C(C(=O)OC2CCCCCCC2)C(c2cccc(O)c2)NC(=O)N1 (centres undefined)
  AmpC nodet inh = 8%

> O=C(Cn1[nH]c(=O)c2ccccc2c1=O)NCc1cccnc1
  AmpC nodet inh = -9%

> CC(C)NC(=O)N1CCC2(CCNCC2)CC1
  AmpC nodet inh = 11%

> CCOc1ccc(NC(=O)CSc2nc3cccnc3n2CC)cc1
  AmpC nodet inh = 16%

> COc1ccc(Cl)cc1C(=O)CSc1nnnn1C1CCCC1
  AmpC nodet inh = 6%

> CC(C)Oc1ccc(CC2CC(=O)NC2=O)cc1 (centres undefined)
  AmpC nodet inh = 13%

> COc1ccc(-c2cc(C(=O)N3CCCCC3)no2)cc1OC
  AmpC nodet inh = 57%

> O=C(c1ccco1)N1CCN(C(=O)C2CC(c3ccc(F)cc3)=NO2)CC1 (centres undefined)
  AmpC nodet inh = 4µM*[single pt active]

> Nc1n[nH]c(-c2ccc(F)cc2)n1
  AmpC nodet inh = -20%

> CCOc1ccccc1OCC(=O)Nc1ccc(N2CCCCC2)cc1
  AmpC nodet inh = 34%

> Cc1ccc(-n2ncc3c(=O)n(Cc4ccccn4)cnc32)cc1C
  AmpC nodet inh = 36%

> O=C(Nc1ccc(F)c(F)c1)NC1CCCCC1
  AmpC nodet inh = -9%

> NCCCCCNC(=O)/C=N\O
  AmpC nodet inh = -4%

> N[C@@H](CSS(=O)(=O)O)C(=O)O
  AmpC nodet inh = 11%

> O=C(NCC1CCCO1)c1nn2cccnc2c1Cl (centres undefined)
  AmpC nodet inh = -2%

> COc1ccc(OC)c(Nc2nc(-c3sc(N)nc3C)cs2)c1
  AmpC nodet inh = 5%

> CC(=O)Oc1ccc(C(=O)Nc2nccs2)cc1
  AmpC nodet inh = 3%

> Cc1ccsc1C(=O)OCc1csc(-c2ccccc2)n1
  AmpC nodet inh = -7%

> c1ccc2nc3c(nc2c1)CCc1nonc1-3
  AmpC nodet inh = 15%

> CCOc1ccccc1C(=O)NC(C(=O)OCC(=O)Nc1nnc(-c2ccccc2)o1)C(C)C (centres undefined)
  AmpC nodet inh = -20%

> O=C1OC(O)C(C(Cl)Cl)=C1Cl (centres undefined)
  AmpC nodet inh = -4%

> COc1ccc(-c2onc(C)c2-c2ccc(C(=O)OC(C)C)o2)c(O)c1
  AmpC nodet inh = 1%

> C=C(C)CSc1nc2c(cc1C#N)CCC2
  AmpC nodet inh = 12%

> O=C(Nc1ccc2c(c1)OCO2)C1CCCCN1S(=O)(=O)c1ccc(F)cc1 (centres undefined)
  AmpC nodet inh = 1%

> Cc1cc(C)nc(N(C#N)CC(=O)c2ccccc2)n1
  AmpC nodet inh = 14%

> Cc1occc1-c1nnc(SCCCC(=O)c2ccc(F)cc2)n1C
  AmpC nodet inh = 38%

> COc1ccc(C(=O)OC(C)CN2CCOCC2)cc1OC (centres undefined)
  AmpC nodet inh = -4%

> Cc1cc(C)nc(SCc2nnc(SCC(=O)Nc3ncc(C)s3)n2Cc2ccco2)n1
  AmpC nodet inh = 97%

> COC(=O)c1nn(-c2ccc(-c3ccccc3)cc2)cc1O
  AmpC nodet inh = 7%

> O=C(NCc1ccco1)c1cccc(S(=O)(=O)N2CCCCC2)c1
  AmpC nodet inh = -10%

> COc1ccc(NC(=O)N2CC3(CCN(S(C)(=O)=O)CC3)C2)cc1
  AmpC nodet inh = 4%

> O=c1c2cc(Cl)ccc2[nH]c(=S)n1Cc1ccco1
  AmpC nodet inh = -23%

> O=C(c1cccc(F)c1)N1CCC2(CCCN(c3cccc(-c4ccccc4)c3)C2)CC1
  AmpC nodet inh = 37%

> COc1ccc(OC)c(CNC(=O)CCc2nc(-c3cccs3)no2)c1
  AmpC nodet inh = 18%

> COc1ccc(C2C(C(=O)c3ccco3)=C(O)C(=O)N2CCc2ccccc2)cc1OC (centres undefined)
  AmpC nodet inh = -14%

> CCc1ccc(NC(=O)Cn2c(=O)n(CCCC(=O)NCc3ccco3)c(=O)c3ccccc32)cc1
  AmpC nodet inh = 11%

> CCOc1cc2[nH]c(=O)n(CCCCCC(=O)NCc3ccc4c(c3)OCO4)c(=O)c2cc1OCC
  AmpC nodet inh = 21%

> COCc1ccccc1Cn1cnc2c1c(=O)n(C)c(=O)n2C
  AmpC nodet inh = 2%

> OC(COc1ccc2ccccc2c1)CN1CCOCC1 (centres undefined)
  AmpC nodet inh = 20%

> COCCN(CCOC)c1cc(C)c(C#N)c2nc3ccccc3n12
  AmpC nodet inh = 15%
